Sa growth inh: blocks Staphylococcus aureus growth | S. aureus RN4220 growth, OD600, 20 h, 42 °C; hits give low values | relative growth, % (concentration not given with the values) | hit rate 0.53% among 170,000;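 active = growth at 42 °C up to 50% and 20 or more points under that at 30 °C, or under 10% at both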;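 note: 300 nL library stock went into each well; scaled to the means of positive and negative controls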
GIV-Gai inh: GIV-Galpha-i interaction inhibition. P08753. Galpha-i3/FITC-GIV peptide fluorescence polarization, 90 min; hits give low values; scaled: aluminum fluoride 0%, vehicle 100%. percent of control (FP), % (concentration not given with the values). hit rate 0.42% among 210,000. AID 1224905;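 active = replicate mean at 85% of control or lower, very high polarization wells dropped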;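 note: wells of about 15 µL received 100 nL stock; the first replicate is given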
Target sequence (P08753 whole entry, looked up): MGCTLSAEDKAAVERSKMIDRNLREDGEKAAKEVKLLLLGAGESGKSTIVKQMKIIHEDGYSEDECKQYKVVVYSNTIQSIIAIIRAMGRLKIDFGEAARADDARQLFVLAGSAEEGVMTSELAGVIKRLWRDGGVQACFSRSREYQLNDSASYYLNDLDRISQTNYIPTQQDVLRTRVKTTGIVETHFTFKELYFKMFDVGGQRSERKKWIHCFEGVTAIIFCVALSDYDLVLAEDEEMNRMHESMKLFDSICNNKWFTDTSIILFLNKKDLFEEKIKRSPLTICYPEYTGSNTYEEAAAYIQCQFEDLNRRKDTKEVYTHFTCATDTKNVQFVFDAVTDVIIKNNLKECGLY
HCMV UL50-53 inh: cytomegalovirus nuclear egress complex inhibition; HTRF UL50-UL53 interaction, normalized percent inhibition; inhibition, % (concentration not given with the values); hit rate 0.15% among 190,000; AID 1918969;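 active = both replicates at 50% or more, plus weaker picks with an unusually low signal ratio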;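 note: stock transfer was 100 nL into about 20 µL; 0% = negative control wells and 100% = wells with untagged competitor protein; inactives centre near -12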
Sa growth inh second temp: recorded beside Sa growth inh, whose call it bears; relative growth, %; measured here: growth at 30 °C;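 optical density after 20 h as mean of two plates; 100% = untreated growth and lower means inhibition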
An asterisk follows results filed as active; x = not tested or not shown; & = joins results of further samples.

1: Cc1cc(C(=O)CSc2ccc3c(c2)OCCO3)c(C)n1C
2: Cc1ccc(NC(=O)CCc2c(C)nc3c(-c4ccc(F)cc4)c(C)nn3c2C)cc1F
3: Oc1ccc(C(=S)N2CCN(c3cccc(Cl)c3)CC2)cc1
4: CCc1c(C(=O)NCCN(C)C)csc1C
5: CC(C)CCn1cccc1C1=NC(C)(C)CO1
6: O/N=C/c1ccc(-c2ccccc2OC(F)(F)F)o1
assay / entry,1,2,3,4,5,6
Sa growth inh,110,114,102,89,101,84
Sa growth inh second temp,92,91,84,95,90,91
GIV-Gai inh,x,100,104,105,103,101
HCMV UL50-53 inh,5,-24,0,-22,-3,-2

7: CCOC(=O)C1=C(C)N=c2s/c(=C\c3ccc4c(c3)n(C)c(=O)n4C)c(=O)n2C1c1ccc(N(C)C)cc1 (stereo unspecified)
8: Cc1ccc(C(=O)NC2(O)C(=O)c3ccccc3C2=O)cc1C
9: CCS(=O)(=O)N1CCN(S(=O)(=O)c2ccc(C)cc2)CC1
10: COc1ccc(Sc2cccs2)cc1
11: O=c1[nH]c(=O)n(-c2ccccc2)c2c1C(C(F)(F)F)(C(F)(F)F)N=C(c1ccncc1)N2
12: COc1cc(C2NC(=O)NC(C)=C2C(=O)OCCc2ccccc2)cc(Cl)c1O (stereo unspecified)
assay / entry,7,8,9,10,11,12
Sa growth inh,x,93,103,122,92,x
Sa growth inh second temp,x,90,89,95,91,x
GIV-Gai inh,112,57*,100,x,x,97
HCMV UL50-53 inh,-8,59*,-6,4,5,5

13: CCOC(=O)C1CCCN(c2c(NCC3CCCN3CC)c(=O)c2=O)C1 (stereo unspecified)
14: Cc1ccccc1S(=O)(=O)N1CCCN(c2ccc(=O)n(-c3ccc(F)cc3)n2)CC1
15: CCn1c(C(=O)N2CCN(c3ccccn3)CC2)cc2sccc21
16: CC(C)NC(=O)CCn1cnc2onc(-c3cccc(F)c3)c2c1=O
17: CCn1c(SCC(=O)N(C)C2CCCCC2)nc2ccc(Br)cc2c1=O
18: COc1ccccc1OCCNC(=O)c1coc2ccccc2c1=O
assay / entry,13,14,15,16,17,18
Sa growth inh,x,x,x,x,69,60
Sa growth inh second temp,x,x,x,x,93,97
GIV-Gai inh,100,103,99,101,x,x
HCMV UL50-53 inh,-14,-40,-15,1,-24,-10

19: COc1ccccc1/C=C/c1nc(C#N)c(NCc2ccccc2)o1
20: C(=Nc1ccc2c(c1)OCCOCCOCCO2)c1c[nH]c2ccccc12
21: CCN1C(=S)SC(=O)C1=C1C=C(C)N(CCO)C(C)=C1
22: CCOC(=O)c1c(-c2cccs2)csc1NC(C)=O
23: Cc1cccc(-c2nc(CCN(C)S(=O)(=O)c3cccc4nsnc34)no2)c1
24: CC1=C(C(=O)Nc2ccccc2)C2(CCCCC2)C(C#N)=C(SCC(=O)Nc2nccs2)N1
assay / entry,19,20,21,22,23,24
Sa growth inh,121,105,118,85,x,120
Sa growth inh second temp,87,87,93,69,x,69
GIV-Gai inh,103,104,x,105,101,x
HCMV UL50-53 inh,-8,x,-68,-7,-71,-7

From compound 6 up to 24, copied from above:
6: O/N=C/c1ccc(-c2ccccc2OC(F)(F)F)o1
7: CCOC(=O)C1=C(C)N=c2s/c(=C\c3ccc4c(c3)n(C)c(=O)n4C)c(=O)n2C1c1ccc(N(C)C)cc1 (stereo unspecified)
8: Cc1ccc(C(=O)NC2(O)C(=O)c3ccccc3C2=O)cc1C
9: CCS(=O)(=O)N1CCN(S(=O)(=O)c2ccc(C)cc2)CC1
10: COc1ccc(Sc2cccs2)cc1
11: O=c1[nH]c(=O)n(-c2ccccc2)c2c1C(C(F)(F)F)(C(F)(F)F)N=C(c1ccncc1)N2
12: COc1cc(C2NC(=O)NC(C)=C2C(=O)OCCc2ccccc2)cc(Cl)c1O (stereo unspecified)
13: CCOC(=O)C1CCCN(c2c(NCC3CCCN3CC)c(=O)c2=O)C1 (stereo unspecified)
assay / entry,6,7,8,9,10,11,12,13
Sa growth inh,84,x,93,103,122,92,x,x
Sa growth inh second temp,91,x,90,89,95,91,x,x
GIV-Gai inh,101,112,57*,100,x,x,97,100
HCMV UL50-53 inh,-2,-8,59*,-6,4,5,5,-14

14: Cc1ccccc1S(=O)(=O)N1CCCN(c2ccc(=O)n(-c3ccc(F)cc3)n2)CC1
15: CCn1c(C(=O)N2CCN(c3ccccn3)CC2)cc2sccc21
16: CC(C)NC(=O)CCn1cnc2onc(-c3cccc(F)c3)c2c1=O
17: CCn1c(SCC(=O)N(C)C2CCCCC2)nc2ccc(Br)cc2c1=O
18: COc1ccccc1OCCNC(=O)c1coc2ccccc2c1=O
19: COc1ccccc1/C=C/c1nc(C#N)c(NCc2ccccc2)o1
20: C(=Nc1ccc2c(c1)OCCOCCOCCO2)c1c[nH]c2ccccc12
21: CCN1C(=S)SC(=O)C1=C1C=C(C)N(CCO)C(C)=C1
assay / entry,14,15,16,17,18,19,20,21
Sa growth inh,x,x,x,69,60,121,105,118
Sa growth inh second temp,x,x,x,93,97,87,87,93
GIV-Gai inh,103,99,101,x,x,103,104,x
HCMV UL50-53 inh,-40,-15,1,-24,-10,-8,x,-68

22: CCOC(=O)c1c(-c2cccs2)csc1NC(C)=O
23: Cc1cccc(-c2nc(CCN(C)S(=O)(=O)c3cccc4nsnc34)no2)c1
24: CC1=C(C(=O)Nc2ccccc2)C2(CCCCC2)C(C#N)=C(SCC(=O)Nc2nccs2)N1
assay / entry,22,23,24
Sa growth inh,85,x,120
Sa growth inh second temp,69,x,69
GIV-Gai inh,105,101,x
HCMV UL50-53 inh,-7,-71,-7

The list continues.
25: CCOC(=O)c1csc(NC(=O)Nc2cccc(OC)c2)n1
26: CN(C)/C=C1\S/C(=N\S(=O)(=O)c2ccc(Cl)cc2)N(C2CCCCC2)C1=O
27: O=C(COC(=O)c1ccc2c(=O)n3c(nc2c1)CCCCC3)NCC1CCCCC1
28: CN(C)S(=O)(=O)c1ccc(=O)n(C(C(=O)NC2CC2)c2ccccc2)c1 (stereo unspecified)
29: CC1CN(/C(=N\S(=O)(=O)c2ccccc2)c2ccccc2)CC(C)O1 (stereo unspecified)
30: CC(NC(=O)c1ccc(C#N)cc1)C(c1cccs1)N1CCCC1 (stereo unspecified)
assay / entry,25,26,27,28,29,30
Sa growth inh,91,96,87,92,102,91
Sa growth inh second temp,84,88,93,86,90,84
GIV-Gai inh,105,x,x,x,x,x
HCMV UL50-53 inh,-26,1,-13,-23,12,-28

31: CC(C)CC(=O)Nc1ccc(C(=O)CN2CCN(c3ccc(O)cc3)CC2)cc1
32: CCC(Cc1ccccc1)NC(=O)Cn1c(=O)oc2cc(S(=O)(=O)NCc3ccccc3)ccc21 (stereo unspecified)
33: Cn1c(=O)c2cn(S(=O)(=O)c3cccc4nsnc34)nc2n(C)c1=O
34: Cc1cc(C)c2c(-n3cccc3)c(C(=O)NCCc3ccccc3)sc2n1
35: CSc1ccc(CCNC(=O)c2ccc3snnc3c2)cc1
36: O=C1c2ccccc2S(=O)(=O)N1CCSc1ncc(C(F)(F)F)cc1Cl
assay / entry,31,32,33,34,35,36
Sa growth inh,93,88,x,114,84,85
Sa growth inh second temp,93,86,x,95,84,89
GIV-Gai inh,x,104,107,98,101,x
HCMV UL50-53 inh,-21,x,-33,-8,x,-21

37: COc1ccc(S(=O)(=O)N(Cc2nc(-c3ccc(Cl)cc3)no2)C2CCCCC2)cc1
38: CC(C)(C)C(=O)CSc1ncccn1
39: COc1ccccc1NC1=NC(c2ccc(Cl)cc2)N=C(N)N1 (stereo unspecified)
40: CC(C)NC(=O)c1c2c(nn1C)-c1ccccc1SC2
41: N#Cc1ccc(COc2cccc[n+]2[O-])cc1
42: CC(OC(=O)CC1CC2CCC1C2)C(=O)Nc1ccc(N2CCOCC2)cc1 (stereo unspecified)
assay / entry,37,38,39,40,41,42
Sa growth inh,83,92,96,106,96,94
Sa growth inh second temp,92,84,88,89,96,92
GIV-Gai inh,106,x,x,100&96,x,x
HCMV UL50-53 inh,6,6,-22,-10&-34,-10,-4

43: CCCOc1ccc(-c2nonc2NC(=O)c2oc3ccc(C)cc3c2C)cc1OCCC
44: O=C(NCc1cccnc1)c1ccccc1C(=O)Nc1sc2ccccc2c1Cl
45: COc1cc2c(cc1OC)CN(CCC(=O)O)CC2
46: O=C(OC1CCCCC1=O)c1ccc(O)cc1 (stereo unspecified)
47: CC(C)(C)c1cn(-c2ccc(F)cc2)c(=S)[nH]1
48: Cc1ccc(-n2ncc3c(NCCCN4CCOCC4)ncnc32)cc1
assay / entry,43,44,45,46,47,48
Sa growth inh,98,104,89,108,106,112
Sa growth inh second temp,88,87,80,99,88,90
GIV-Gai inh,101,102,92,x,100,105
HCMV UL50-53 inh,-6,-17,x,7,x,x

49: CC(Sc1nc(=O)cc(N)n1CCc1ccccc1)C(=O)Nc1cccc(Cl)c1 (stereo unspecified)
50: O=C(O)CCC(=O)N1N=C(c2ccc(Br)cc2)CC1c1ccccc1Cl (stereo unspecified)
51: O=C(CSc1nccc(=O)[nH]1)CSc1nccc(=O)[nH]1
52: CNc1c(NC(=O)Nc2cccc(OC)c2)c(=O)oc2ccccc12
53: CC(C)(C)C(=O)Nc1ccc(N2CCN(C(=O)c3ccco3)CC2)c(Cl)c1
54: COc1ccc(C(=O)Nc2cc(-c3nc4ccccc4s3)ccc2C)cc1OC
assay / entry,49,50,51,52,53,54
Sa growth inh,91,x,83,111,102,x
Sa growth inh second temp,68,x,77,92,74,x
GIV-Gai inh,109,106,x,106,97,96
HCMV UL50-53 inh,-13,-24,-3,-8,-17,-3

55: Cc1ccc(C)c(NC(=O)C(Cc2ccccc2)n2cccc2)c1 (stereo unspecified)
56: COc1cccc(C2Nc3ccccc3-c3nc4ccccc4n32)c1 (stereo unspecified)
57: CCC(=O)N1c2ccc(S(=O)(=O)CCC(=O)Nc3ccc(C)c(F)c3)cc2CC1C (stereo unspecified)
58: CCN1C(=O)C(=Cc2ccc(-c3ccc(Br)c(Cl)c3)o2)C(=O)N(CC)C1=S
59: NC(=O)N/N=C/c1cn(-c2ccccc2)nc1-c1ccccc1
60: COc1ccccc1C(Nc1nc(C)cc(C)n1)c1cc(C)sc1NC(=O)c1ccccc1 (stereo unspecified)
assay / entry,55,56,57,58,59,60
Sa growth inh,93,78,91,113,83,x
Sa growth inh second temp,87,64,80,99,91,x
GIV-Gai inh,103,102,95,115,104,102
HCMV UL50-53 inh,14,-17,-21,-3,-6,-12

61: Cc1nc2ccc(S(=O)(=O)N(CC(=O)Nc3cccc(C)c3C)Cc3ccccc3)cc2s1
62: COc1ccccc1CNC(=O)C1CCCN(S(=O)(=O)c2ccc(C)cc2)C1 (stereo unspecified)
63: COc1ccc2oc(=Nc3cccc(C#N)c3)c(C(=O)Nc3ccccc3)cc2c1
64: COc1cc(/C=C/C2=NNC(=O)CC2)cc(OC)c1OC
65: O=C(CSC(=S)N1CCSCC1)c1ccccc1
66: O=C(CSc1nc(-c2ccco2)cc(C(F)(F)F)n1)N(Cc1ccccc1)Cc1ccccc1
assay / entry,61,62,63,64,65,66
Sa growth inh,85,93,x,90,99,92
Sa growth inh second temp,74,88,x,96,97,87
GIV-Gai inh,98,103,98,104,95,98
HCMV UL50-53 inh,x,x,-9,-118,x,x

67: FC(F)(F)c1c2c(nc3cc(-c4ccco4)nn13)CCC2
68: Cc1[nH]c2ccc(CNS(=O)(=O)c3ccc(S(=O)(=O)N4CCOCC4)cc3)cc2c1C
69: CNS(=O)(=O)c1cccc(C(=O)NCc2ccccc2)c1
70: Clc1ccc(-n2c(Cc3ccccc3)nnc2SCc2nc(-c3cccs3)no2)cc1
71: COC(=O)c1ccc(-c2ccco2)n1CC(=O)N1CCc2ccccc21
72: Cc1ccc(CNC(=O)CSc2nc3ccsc3c(=O)n2-c2ccc(C(=O)O)cc2)cc1
assay / entry,67,68,69,70,71,72
Sa growth inh,87,87,95,109,100,107
Sa growth inh second temp,85,103,91,91,92,84
GIV-Gai inh,99,107,x,108,102,102
HCMV UL50-53 inh,-2,8,-37,-3,-8,x

73: CCCCC(=O)Oc1cc(-c2ccccc2)c2oc(=O)sc2c1
74: C#CCSc1nc2sc3c(c2c(=O)n1Cc1ccccc1)CCCC3
75: CCOc1cc(C(=O)Nc2ccc(Cl)c(-c3nc4cc(C)c(C)cc4o3)c2)cc(OCC)c1OCC
76: CCCCN(C)S(=O)(=O)c1ccc(NC2=NS(=O)(=O)c3ccccc32)cc1
assay / entry,73,74,75,76
Sa growth inh,74,102,x,98
Sa growth inh second temp,48,87,x,93
GIV-Gai inh,105,107,106,102
HCMV UL50-53 inh,x,-30,-4,-38

Compound activity as filed in PubChem BioAssay.
